PABP polyA inh = blocks human PABP binding to poly(A) RNA. P11940. fluorescence polarization. inhibition, % at 35 µM. 290,000 compounds, 1% hits;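 active means 50% or more with normal probe brightness, or confirmed in later tests; inconclusive means above 50% with abnormal brightness, or retests that disagree; inactive means below 50% or failed in later tests; about a fifth of its hits are not listed in these tables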;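 further: calls also rest on retests at 20 µM and on dose response follow-up; controls were probe without protein and protein plus probe with vehicle; some compounds called inactive have numbers as strong as hits; many hits fall short of the cut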
eIF4H inh = inhibitors of RNA binding by human eIF4H | Q15056 | inhibition, % at 35 µM | AID 2012 | eIF4H fluorescence polarization binding assay | 290,000 compounds, 0.94% hits;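 active means 50% or more with normal probe brightness, or confirmed in later tests; inconclusive means above 50% with abnormal brightness, or retests that disagree; inactive means below 50% or failed in later tests; about a fifth of its hits are not listed in these tables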;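 further: calls also rest on retests at 20 µM and on dose response follow-up; 0% = protein and probe with vehicle and 100% = probe without protein; strong numbers were not always called active; many hits fall short of the cut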
Rce1 inh = yeast Ras-converting enzyme inhibition | AID 2563 | calls only | 290,000 compounds, 0.27% hits | yeast membranes, quenched prenylated peptide cleavage fluorescence | Q03530;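 active means fall in fluorescence gain of 50% or more versus controls, with final raw signal at or below 3038400; inconclusive means same 50% fall but final raw signal above 3038400; inactive means fall in fluorescence gain under 50%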;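 further: plate controls were neutral control wells for no effect and wells lacking membranes for full effect; tested at 10 µM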
Target sequence (Q03530 whole entry, looked up): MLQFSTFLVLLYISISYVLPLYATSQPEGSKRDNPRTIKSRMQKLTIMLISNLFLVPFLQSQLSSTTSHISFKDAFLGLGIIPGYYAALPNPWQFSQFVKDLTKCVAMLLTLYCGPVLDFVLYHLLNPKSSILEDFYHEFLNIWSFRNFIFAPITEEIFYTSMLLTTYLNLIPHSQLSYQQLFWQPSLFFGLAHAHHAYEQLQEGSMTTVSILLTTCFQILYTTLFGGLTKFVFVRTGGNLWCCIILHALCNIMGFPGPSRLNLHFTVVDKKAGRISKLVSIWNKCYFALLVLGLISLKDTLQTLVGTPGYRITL
Yeast UUG start = yeast start codon fidelity modulation. activity score, % at 18.7 µM. AID 602363. S. cerevisiae UUG-firefly luciferase reporter, luminescence/redox ratio. 350,000 compounds, 0.13% hits;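 active means replicate mean at a twofold rise or more, about +100% in these data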;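 further: firefly luciferase made from a UUG start codon reports start codon fidelity; reporter light over untreated wells divided by growth signal over untreated wells; some hits fall short of that in this replicate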
Env fusion inh = blocks HIV Env-driven cell-cell fusion; HeLa-JRFL Env/CEM21 cell fusion, luciferase; AID 651610; 360,000 compounds, 1.1% hits; inhibition, % at 12.3 µM;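 active means mean replicate inhibition score of at least 50 and every replicate individually at or above 50; inconclusive means only one of the two criteria met; inactive means mean below 50 and not all replicates reaching 50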;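 further: 0% = plate neutral controls and 100% = maraviroc near 300 nM; one replicate is shown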
CSC inhib = cancer stem cell inhibition; 300,000 compounds, 1.1% hits; inhibition, % at 7.5 µM; cancer stem cell-like cells viability, luminescence;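 active means mean at 75% or more and at least half the replicates too; inconclusive means mean and replicates disagree; tested in HMLE shEcad cells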;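 further: 0% = median of negative and 100% = median of positive control wells; the first replicate is given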
MT1-MMP act inh = inhibitors of human MT1-MMP activation | GFP/RFP ratio change, % at 20 µM | 360,000 compounds, 0.061% hits | HT1080 RFP-PRO-GFP cells, GFP/RFP ratio fluorescence, overnight; percent of plate control window, DMSO zero | AID 651647 | P50281;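 active means GFP/RFP ratio change of at least 30% with cell ATP level not reduced by more than half and red fluorescence within 50% of control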; further: strong numbers were not always called active
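system = RFP-PRO-GFP reporter HT1080 cells | dosing = 20 µM single dose, 1% DMSO | timing = overnight cell settling, then overnight compound exposure, 37 °C, 5% CO2 | read-out basis = GFP/RFP fluorescence ratio | controls = DMSO and RFP-L50D-GFP cell wells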
MT1-MMP act inh RFP = recorded beside MT1-MMP act inh, whose call it bears; RFP signal change, %; measured here: RFP expression control read;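 0 = vehicle wells; hits needed this value within 50% of zero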
* hit, by the source's call; i = inactive; ? = inconclusive; nt = not tested or not shown; + = active, no number.

smiles	PABP polyA inh	eIF4H inh	Rce1 inh	Yeast UUG start	Env fusion inh	CSC inhib	MT1-MMP act inh	MT1-MMP act inh RFP
COc1cccc(C(C)(O)c2nc(-c3ccc(Cl)cc3)cs2)c1 (configuration not stated)	nt	nt	nt	-11	-1	nt	-4	-21
N#Cc1nc(COc2ccc(Cl)cc2)oc1NCc1ccc2c(c1)OCO2	8	1	i	10	-21	-13	3	-5
COC(=O)C1=C(C(=O)OC)[C@@H]2N(C)c3ccccc3[C@@]23C[C@@H](C(=O)OC)N(C(=O)CC(C)C)C3=N1	-4	-11	i	4	-16	6	3	0
CCC(=O)N1CCN(c2ccccc2NC(=O)COc2ccc(C(C)C)cc2)CC1	14	-2	i	9	-42	0	-5	-9
COc1ccccc1CNC(=O)[C@H](C)NC(=O)C1CCN(C(=O)[C@H](CCSC)NC(=O)OC(C)(C)C)CC1	4	-8	nt	-11	nt	-7	-1	1
Cc1ccc(NC(=O)C2CCN(c3nc(C)cc(C)n3)CC2)cc1	0	8	i	-20	-10	-5	0	-4
COc1ccc(OC)c(CCNC(=O)Cn2cccc2C(=O)c2ccccc2)c1	12	-7	i	-14	-2	-7	3	2
Oc1ccccc1N=Cc1c(O)ccc2oc3c(c12)CCCC3	?	?	i	-8	-2	17	-24	-1
O=C(NC1CCN(C(=O)C2CCCCC2)CC1)c1ccccc1	-8	0	i	nt	15	12	-2	0
Cc1ccc(-n2c(C)c([N+](=O)[O-])c3ccc(O)cc32)cc1	7	-13	i	nt	17	-6	nt	nt
CC1=C(C(N)=O)C(c2ccco2)C(C(N)=O)=C(C)N1	0	11	i	-2	-10	-6	-4	2
Cc1ccccc1-n1ncc2c1CC(C)(C)CC2NC(=O)c1cn[nH]c1C (configuration not stated)	-2	-9	i	-5	-49	nt	0	-1
Cc1cc(C)c2c(n1)sc1c(=O)n(-c3ccccc3)c(=O)[nH]c12	8	0	i	-5	nt	17	4	2
CCc1ccc(OCCCC(=O)Nc2ccc(N3CCOCC3)cc2)cc1	2	-1	i	nt	7	-1	4	5
CCn1c2ccccc2c2cc(NC(=O)CNC)ccc21	-8	-1	i	nt	-9	6	0	0
Clc1ccc(Cl)c(-c2ccc(/C=N/c3ncn[nH]3)o2)c1	12	-1	i	nt	-8	2	-1	2
CC(C)CN(C(=O)COC(=O)Cn1cnc2ccccc2c1=O)C1CCS(=O)(=O)C1 (configuration not stated)	-1	-2	i	-11	-13	-6	1	3
Cc1ccc(C(=O)C(C)OC(=O)Cn2[nH]c(=O)c3ccccc3c2=O)cc1 (configuration not stated)	2	-19	i	5	-4	nt	-2	2
Cc1ccc(CCC2C3=C(CCCC3=O)OC3=C2C(=O)CCC3)cc1	-3	5	i	6	36	-9	-7	-6
O=C(Nc1ccccc1Oc1ccsc1C(=O)O)c1ccccc1	1	4	i	nt	-13	-8	-1	3
CCn1c(COc2cccc3ccccc23)nnc1SCC(N)=O	-9	-10	i	-10	-5	-11	1	3
CC(=O)Nc1cc2nn(-c3ccccc3)nc2cc1C	0	-3	i	-23	-67	2	-2	-2
COC(=O)c1c(C)nc(C)c(C(=O)OC)c1-c1cccs1	-1	7	i	nt	19	-1	0	3
O=c1c(C=NCCCO)c(-c2ccccc2)[nH]n1-c1nc2ccccc2s1	4	5	i	nt	11	-12	6	8
CC(=O)NC(Cc1c[nH]c2ccccc12)C(=O)OCC(=O)Nc1cc(C)on1 (configuration not stated)	1	3	i	2	-7	-11	5	3
O=C(O)CCCCCNS(=O)(=O)c1ccc(Cl)cc1	-6	-10	i	-14	nt	-4	0	-1
COc1ccc(NC(=O)c2nc(C)c(C3(C)CC(c4cccnc4)=NO3)s2)cc1 (configuration not stated)	6	2	i	-6	-309	6	1	-23
COc1ccc(S(=O)(=O)NCc2cccnc2)cc1NC(=O)c1ccccc1C	nt	nt	nt	-16	1	nt	-5	6
Cc1c(C(=O)NCc2cccnc2)oc2ccccc12	4	2	i	-13	-22	-6	7	0
Cn1c(=O)c2c(nc(CN3CCC(Cc4ccccc4)CC3)n2CCN2CCOCC2)n(C)c1=O	-1	-4	nt	-28	-8	nt	-3	1
COc1ccc(CNC(=O)c2ccccc2SCC(=O)N2CCCC2)cc1OC	nt	nt	i	-1	-10	-5	2	1
COc1cccc(C2N(c3cccc(Cl)c3)C(=O)C3CCCN32)c1 (configuration not stated)	-5	5	i	3	-28	-13	9	8
CC1CCC(NCc2ccco2)CC1 (configuration not stated)	0	0	i	-1	-89	-18	2	2
CCN(CC)S(=O)(=O)c1cccc(N2CC(O)=C(c3ccccc3)C2=N)c1	-4	-3	i	-3	-8	18	-4	1
CC(=O)OCC(C)n1[nH]c2ccccc2c1=O (configuration not stated)	nt	nt	nt	-10	-10	nt	0	3
CC(=O)N1CCN(c2ccc(NCc3cccs3)cc2)CC1	2	-3	nt	-17	-19	9	21	7
Cc1cc(=O)n2nc(N3CCCC(C(=O)NCc4ccccc4)C3)sc2n1 (configuration not stated)	-5	-5	i	-6	nt	0	1	4
CCCC(=O)c1cc(F)c(N2CCOCC2)cc1C	-3	6	i	-16	nt	-1	6	2
Cc1ccc(CNc2nc(N)c([N+](=O)[O-])c(Nc3ccc(F)cc3)n2)cc1	-8	3	i	-12	-93	14	3	-2
COc1ccc(CCNC(=O)COC(=O)/C=C/c2ccc(OC)c(OC)c2)cc1	4	2	nt	nt	12	1	-1	4
CCN1CCC(C(N)=O)CC1	2	-6	i	-11	nt	-13	-2	5
O=C(CNC(=O)N1CC(=O)Nc2ccccc21)NCc1ccc(Cl)cc1	0	-11	i	-17	-3	-11	3	0
Cc1cc(=O)oc(C)c1C(=O)NC1CCCCCCC1	-6	0	i	nt	8	23	2	5
CC(=O)c1sc(NC(=O)c2cccnc2Cl)nc1C	-4	2	i	nt	-3	1	-1	1
Cc1ccc2oc(=O)c3cnn(CC(=O)N4CCN(c5ccccc5)CC4)c3c2c1	2	-8	i	-4	3	-13	4	7
CCOC(=O)c1ccc(NC(=O)CCS(=O)(=O)c2cccc3nonc23)cc1	-5	-6	i	-6	2	7	-5	-2
COc1ccc(OC)c(NC(=O)Nc2nnc(N3CCCCC3C)s2)c1 (configuration not stated)	5	3	i	-20	-4	25	0	-6
COc1cc2c3c(cccc3c1)C(=O)N(CCN1CCCC1)C2=O	nt	nt	nt	-16	21	nt	16	16
COc1cc(S(=O)(=O)NC2CCCCC2)ccc1Cl	0	-1	nt	-33	nt	-6	2	-4
O=C(NC1CC1)C1CC(=O)N(c2cccc(Cl)c2Cl)C1 (configuration not stated)	2	-4	i	-9	15	-8	-3	-1
CC(=O)N1CCCc2cc(S(=O)(=O)NC(C(=O)NCc3ccc(C)cc3)C(C)C)ccc21 (configuration not stated)	-2	-3	i	nt	5	9	-2	-3
COC(=O)c1c(NC(=O)C2(C)Cc3ccccc3C(=O)O2)sc2c1CCCC2 (configuration not stated)	0	10	i	2	nt	21	-3	-9
CC1(C)CC(=O)C(C=NCCN2CCN(CC(=O)Nc3ccccc3)CC2)=C(O)C1	2	2	i	-18	10	3	3	4
CCOC(=O)c1cc2c(=O)n3ccccc3nc2n(C(C)C)c1=NC(=O)c1ccco1	4	15	i	nt	6	0	-2	2
Nc1ccc2c(c1)C(=O)c1cc(Cl)c(Cl)cc1-2	nt	nt	nt	29	-27	nt	3	-4
CC(C)NS(=O)(=O)c1ccc(CCC(=O)N2CCCCC2)cc1	-2	-4	i	nt	5	-25	0	4
[O-][n+]1onc2c1CCc1c-2nn(-c2ccccc2Cl)[n+]1[O-]	6	4	i	nt	nt	0	-5	-7
CCOc1nc(S(=O)(=O)c2ccc(C)cc2)c(Cl)s1	-3	40	i	-3	nt	-3	3	-5
CCOC(=O)Nc1sc2c(c1C#N)CCC(C)C2 (configuration not stated)	-7	7	i	-4	nt	3	-2	-4
COc1ccc(S(=O)(=O)/N=C2\C=C(Nc3ccc(O)cc3)C(=O)c3ccccc32)cc1	17	10	i	-13	75*	nt	-19	-32

The list goes on:
smiles	PABP polyA inh	eIF4H inh	Rce1 inh	Yeast UUG start	Env fusion inh	CSC inhib	MT1-MMP act inh	MT1-MMP act inh RFP
O=C(NCc1ccccc1Cl)C1CCC(=O)N(C2CC2)C1 (configuration not stated)	5	-12	nt	-25	-4	-9	4	5
C/C(=N\Nc1nccnc1Cl)c1ccc(Br)cc1	-8	-7	i	-20	-19	-8	0	-5
CC(=O)Nc1ccc(C(=O)NNC(=O)CCc2ccccc2)cc1	-7	-7	i	0	-25	-6	2	3
Cc1ccc(N(CCC#N)C(=O)COC(=O)C2=COCCO2)cc1	nt	nt	i	-3	-2	-8	5	6
COc1cc(OC)cc(-c2c(-c3cccs3)c3cc(-c4ccc(OC)c(OC)c4)ccc3n2C)c1	nt	nt	nt	-17	23	-14	4	4
Cc1noc(NS(=O)(=O)c2ccc(NC(=O)C(F)(F)C(F)(F)C(F)(F)F)cc2)c1C	nt	nt	i	-14	6	8	1	3
O=C(CNS(=O)(=O)c1ccc(F)cc1)Nc1ccc(C(F)(F)F)cc1	-11	-3	i	-16	27	-1	-2	-10
O=C(NNc1ccc([N+](=O)[O-])cc1)c1ccco1	9	3	i	-15	9	-3	-4	2
Cc1nc2c(C#N)c[nH]n2c(=O)c1CCO	-2	-2	i	-7	7	-4	2	7
Cc1noc(C)c1COc1cccc(C(=O)OCCOc2ccc(F)cc2)c1	10	12	i	-8	nt	-4	1	1
CC(C)c1ccc(OCC(=O)N(Cc2ccccc2)c2ccccn2)cc1	-2	-1	i	-10	2	18	0	-2
CCn1c(C)nc2c(=O)oc3ccccc3c21	-13	-3	+	-15	i	25	2	0
O=C(O)c1cccc(Nc2nc(-c3ccccc3)nc3ccccc23)c1	11	2	i	1	-10	0	-1	3
CCN(CC)CCNC(=O)Cn1nc(-c2ccccc2)c2ccccc2c1=O	1	-10	i	-10	nt	-4	1	7
O=C(Nc1ccc(Cl)cn1)c1ccc(Br)c(S(=O)(=O)N2CCCCC2)c1	6	-1	i	-10	5	nt	-9	-24
COc1cc2c(C(=O)NCCCN3CC(C)CC(C)C3)cn(CC(C)C)c(=O)c2cc1OC (configuration not stated)	4	-3	i	-2	27	-2	-4	1
Fc1cccc(Cl)c1CNCc1cccnc1	-1	-1	i	-11	-21	-2	0	1
CCc1nnc(NC(=O)c2cnccn2)s1	-2	2	i	-5	nt	-4	0	-8
CC(=O)c1ccc(S(=O)(=O)N2CCN(C)CC2)cc1	0	-8	i	-13	14	6	-1	3
CCc1c(C)nc2ncnn2c1N1CCCC(C(=O)Nc2cc(F)ccc2C)C1 (configuration not stated)	0	-1	i	-23	nt	-2	1	-9
O=C(C1CC(=O)N(c2ccc(F)c(Cl)c2)C1)N1CCOCC1 (configuration not stated)	nt	nt	nt	-6	-19	nt	1	8
Cc1ccc(NC(=O)C2=CC=CN3CCS(=O)(=O)N=C23)cc1	nt	nt	nt	-5	nt	-11	6	7
O=C(Nc1cccc2cccnc12)c1ccc(Br)o1	-15	6	i	nt	-86	-5	-3	-1

High-throughput results from PubChem.

The list is partial. The share of hits here may be higher or lower than overall.
